Assay outcomes from PubChem BioAssay.
Sa growth inh: S. aureus growth inhibition at 42 and 30 °C, primary screen, LtaS inhibitor project, RN4220, two temperatures | OD600, 20 h, 42 °C; hits give low values | relative growth, % (test concentration not listed) | hit rate 0.53% among 170,000;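 active means growth at 42 °C up to 50% and 20 or more points under that at 30 °C, or under 10% at both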;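 further: 300 nL library stock went into each well; scaled to the means of positive and negative controls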
HCMV UL50-53 inh: inhibitors of HCMV UL50-UL53 interaction, biochemical, HTRF. inhibition, % (no concentration beside the values). normalized percent inhibition. AID 1918969, 2023. hit rate 0.15% among 190,000;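 active means both replicates at 50% or more, plus weaker picks with an unusually low signal ratio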;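 further: stock transfer was 100 nL into about 20 µL; 0% = negative control wells and 100% = wells with untagged competitor protein; inactives centre near -12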
GIV Gai3 FP: inhibitors of GIV peptide binding to Galpha-i3, primary screen, biochemical, fluorescence polarization, FITC-GIV GBA peptide, rat Galphai3; 90 min; hits give low values; scaled: aluminum fluoride 0%, vehicle 100%; percent of control (FP), % (no concentration beside the values); hit rate 0.42% among 210,000;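 active means replicate mean at 85% of control or lower, very high polarization wells dropped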;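 further: wells of about 15 µL received 100 nL stock; the first replicate is given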
Target sequence (P08753 whole entry, looked up): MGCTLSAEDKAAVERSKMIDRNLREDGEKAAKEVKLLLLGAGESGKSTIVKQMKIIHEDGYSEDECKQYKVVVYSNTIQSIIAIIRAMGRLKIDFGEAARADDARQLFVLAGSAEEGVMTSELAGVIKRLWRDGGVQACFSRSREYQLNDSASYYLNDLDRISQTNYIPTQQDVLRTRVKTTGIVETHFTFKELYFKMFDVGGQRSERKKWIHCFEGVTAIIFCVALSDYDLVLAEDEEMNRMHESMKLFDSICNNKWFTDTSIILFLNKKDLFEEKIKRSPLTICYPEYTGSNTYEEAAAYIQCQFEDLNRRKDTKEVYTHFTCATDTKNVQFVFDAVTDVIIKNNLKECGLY
Sa growth inh second temp: further read-out of Sa growth inh, marked with its call; relative growth, %; measured here: growth at 30 °C;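 optical density after 20 h as mean of two plates; 100% = untreated growth and lower means inhibition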
Active calls of the source: *; . = no result given; & = joins results of further samples. Compounds as they come, and some 0.82% of all compounds hit somewhere here.

SMILES | Sa growth inh | Sa growth inh second temp | HCMV UL50-53 inh | GIV Gai3 FP
O=S(=O)(Nc1nc2n(n1)C(c1ccc(F)cc1)C=C(c1ccccc1)N2)c1ccc(Cl)cc1 (configuration not stated) | 88 | 62 | -51&-36 | 118&101
CCOC(=O)c1oc2c(CN3CCN(C)CC3)c(O)ccc2c(=O)c1-c1ccc(OC)cc1 | 102 | 85 | . | 100
Cc1cc(OCc2nc(-c3ccc(OCC(N)=O)cc3)no2)cc(C)c1Cl | 93 | 89 | . | 99
N#CSCC(=O)c1cccc2ccccc12 | 48 | 0 | -24 | 99
Cc1ccc(N(CC(=O)Nc2ccc(F)cc2F)S(=O)(=O)c2cccs2)cc1 | 98 | 81 | -7 | 102
CCOC(=O)c1[nH]c(C)c(C(=O)N2CCC(C(=O)OCC)CC2)c1C | 106 | 91 | -20 | 108
CC(=O)Nc1ccc(S(=O)(=O)NC(C)C)cc1 | 122 | 86 | -14 | .
Cn1cc(CC(=O)NCCN2CCOCC2)c2ccccc21 | 110 | 89 | -5 | 97
CC(Oc1cccc(Br)c1)C(=O)NN (configuration not stated) | 91 | 96 | 4 | .
Cc1ccccc1CNC(=O)CN1C(=O)C(C)(C)c2ccccc21 | . | . | -29 | 98
O=C(c1ccc(NS(=O)(=O)/C=C/c2ccccc2)cc1)N1CCN(c2ncccn2)CC1 | 100 | 88 | 0 | .
CCOC(=O)c1c(NC(=O)c2ccccc2)sc2c1CCC2 | 93 | 87 | -11 | .
Cc1ccccc1SCC(=O)O | 81 | 103 | -10 | 95
COc1ccc2cc(COC(=O)c3ccc(Br)o3)c(Cl)nc2c1 | 113 | 84 | -43 | .
Cn1c(=O)c2c(-c3ccccc3)n(CCCO)cc2n(C)c1=O | 113 | 99 | . | 105
COc1ccc(-c2nc(N3CCC(C)CC3)nc3nn4c(C)cc(C)nc4c23)cc1 | . | . | -18 | 88
CC[n+]1ccccc1/C=C/N(C(C)=O)c1ccccc1 | 112 | 95 | . | 101
O=C(Nc1nccs1)C1=Cc2cc(Br)ccc2OC=C1 | . | . | 18 | 113
O=C(O)COc1cccc2nsnc12 | 92 | 95 | -68 | .
CCOc1ccc(N2C(=O)CC(Cc3ccccc3OC)C2=O)cc1 (configuration not stated) | 102 | 92 | -10 | 102
CSc1cccc(NC(=O)CSc2nnc(Cc3ccccc3)o2)c1 | 112 | 86 | -1 | 109
O=C(NCc1ccco1)NC1CC(=O)N(c2ccccc2)C1 (configuration not stated) | 90 | 84 | -30 | 102
CCOC(=O)c1c(NC(=O)Cc2ccc(Cl)cc2)sc(C(=O)Nc2cc(C)ccc2C)c1C | . | . | -10 | 103
CC(C)(C)OC(=O)NC1CCN(C(=O)NC2CCCCC2)CC1 | 108 | 86 | . | 101
COc1ccc(-c2c(C)nn3c(C(F)(F)F)cc(-c4ccccc4)nc23)cc1OC | 110 | 87 | -1 | 108
Cn1c(=O)n(C)c2cc(CNCc3ccc(C(=O)O)cc3)ccc21 | 109 | 89 | . | 105
Cc1cc(C)n(CC(=O)NCCc2ccccc2)c(=O)c1S(=O)(=O)c1ccc(Br)cc1 | . | . | -10 | 105
O=C(c1cnc2ccccn12)C(F)(F)Sc1ccccc1 | 103 | 97 | 0 | 106
Cc1noc(-c2cccnc2NC(C)C)n1 | . | . | -10 | 88
c1coc(CNCC2OCc3ccccc3CO2)c1 | 119 | 94 | -2 | .
CC1(C(=O)NC2CCCCC2)Cn2c(cc3occc32)C(=O)N1C1CCCC1 (configuration not stated) | . | . | -12 | 104
Cc1oc(-c2ccc(Cl)cc2)cc1C(=O)N1CCCC1 | 112 | 97 | -1 | 109
COc1ccc(-c2nc3c(s2)CN(S(C)(=O)=O)CC3)cc1 | . | . | -28 | 101
N#CCCN(C(=O)c1cncc(Br)c1)c1ccccc1F | 103 | 85 | -30 | .
O=C(Cn1c(=O)oc2cc(S(=O)(=O)N3CCCC3)ccc21)Nc1ccc(F)cc1F | 150 | 59 | -11 | 103
CCOc1ccc(NC(=O)c2cc(CN3CCCC3)on2)cc1 | 97 | 98 | . | 105
CCc1ccc(CNC(=O)c2cc3c(C)nc4ccccc4c3o2)cc1 | 92 | 85 | . | 99
COc1ccc(CC(=O)Nc2ccc(-n3cnnn3)cc2)cc1OC | 78 | 94 | -8 | .
O=S(=O)(c1ccc(S(=O)(=O)N2CCCC2c2ccc3c(c2)OCCCO3)cc1)N1CCCC1 (configuration not stated) | 94 | 94 | -21 | .
CCOC(=O)c1cccc(-n2sc(=O)n(C3Cc4ccccc4C3)c2=O)c1 | 94 | 87 | -31 | 106
CN(c1ccccc1)S(=O)(=O)c1cccc(C(=O)NC2CCCC2)c1 | 92 | 87 | 2 | .
CC(=O)Oc1cccc(/C=c2/sc3nc4ccccc4n3c2=O)c1 | 97 | 84 | -13 | 107
O=c1c2c3c(sc2ncn1-c1ccccc1)CCCC3 | 101 | 86 | . | 106
C=Cn1cccc1-c1cccs1 | 81 | 49 | -3 | 117
O=C(c1ccco1)N1CCN(C(=O)c2cnn(-c3cccc(F)c3)c2C2CCNCC2)CC1 | 90 | 89 | . | 96
CCc1cc2c(cc3n2CC(C)(C(=O)NC2CCCCC2)N(CCC(C)C)C3=O)s1 (configuration not stated) | . | . | -6 | 100
COc1ccc(Nc2ccc3cc(S(=O)(=O)N4CCCC4)ccc3n2)cc1Cl | 82 | 90 | . | 103
Cc1cc2nc(CSc3nnc(NC(=O)Nc4ccc(Cl)cc4)s3)cc(=O)n2o1 | . | . | -23 | 108
Cc1ccc2nc(=O)c(NNc3ccccc3)cnc2c1 | 91 | 90 | -38 | .
CC12CCC(=O)N1C(C(=O)OCC(=O)N1CCN(S(=O)(=O)c3ccc4ccccc4c3)CC1)CS2 (configuration not stated) | 90 | 86 | -13 | .
Cc1c(C(=O)NC2CCCCC2)sc2ncnc(N3CCN(C)CC3)c12 | . | . | -13 | 102
CCOc1ncccc1C(=O)OCC(=O)c1ccccc1 | 105 | 85 | -19 | .
CSc1nn(-c2ccccc2)cc1-c1noc(-c2ccc(Cl)cc2)n1 | 88 | 87 | 2 | 100
CCn1c(=O)cc(SCC(=O)NC2CCCC2)c2ccccc21 | 94 | 88 | . | 102
Cn1nc(C(F)(F)F)c(C#N)c1NCc1ccccc1 | . | . | -15 | 103
CCOCCCNC(=O)C1CCN(c2nc3ccc(C)cc3[nH]2)CC1 | 89 | 74 | . | 99
CC1(C)CC2=NN(c3ccccc3)P(=S)(NCc3ccco3)C2=C(N2CCCCC2)C1 (configuration not stated) | 101 | 96 | -28 | .
FC(F)(F)Oc1ccc2c(c1)NC(c1ccncc1)=NC(c1cccs1)=N2 | 89 | 72 | 7 | 101
O=C1CN(C(=O)c2cccc(Br)c2)C(c2ccccc2)c2cc(Cl)ccc2N1 (configuration not stated) | 65 | 87 | . | 99
Cc1ccc(Sc2ncccc2NS(=O)(=O)c2ccc(F)cc2)cc1 | 154 | 56 | -4 | 102

Structures shown so far that contain an aryl thioether with sulfur outside any ring:
SMILES | Sa growth inh | Sa growth inh second temp | HCMV UL50-53 inh | GIV Gai3 FP
Cc1ccccc1SCC(=O)O | 81 | 103 | -10 | 95
CSc1cccc(NC(=O)CSc2nnc(Cc3ccccc3)o2)c1 | 112 | 86 | -1 | 109
O=C(c1cnc2ccccn12)C(F)(F)Sc1ccccc1 | 103 | 97 | 0 | 106
Cc1cc2nc(CSc3nnc(NC(=O)Nc4ccc(Cl)cc4)s3)cc(=O)n2o1 | . | . | -23 | 108
CSc1nn(-c2ccccc2)cc1-c1noc(-c2ccc(Cl)cc2)n1 | 88 | 87 | 2 | 100
CCn1c(=O)cc(SCC(=O)NC2CCCC2)c2ccccc21 | 94 | 88 | . | 102
Cc1ccc(Sc2ncccc2NS(=O)(=O)c2ccc(F)cc2)cc1 | 154 | 56 | -4 | 102

Continuation.
SMILES | Sa growth inh | Sa growth inh second temp | HCMV UL50-53 inh | GIV Gai3 FP
O=C(O)CN1C(=O)/C(=C\c2cc(Br)cc(Cl)c2O)SC1=S | . | . | -66 | 106
CCN1CCN(C(=O)N2c3ccccc3Sc3ccccc32)CC1 | 80 | 99 | 14 | 100
Nc1nnc(-c2ccc(Cn3c(-c4cncs4)nc4ccccc43)cc2)s1 | 98 | 68 | -6 | .
CCN(CC)CCNCc1ccc(-c2ccccc2F)o1 | . | . | 2 | 101
CC(=O)N1CCCc2ccc(NC(=O)Oc3ccccc3)cc21 | 91 | 80 | -24 | 104
Cc1cc2c(cc3c(SCC(=O)Nc4ccccc4F)nncn32)o1 | 85 | 72 | . | 102
O=C(CC12CC3CC(CC(C3)C1)C2)Nc1c(O)c2ccccc2oc1=O | 76 | 96 | . | 106
Cc1ccc(C(C)N)cc1C (configuration not stated) | 117 | 83 | -10 | 101
COc1ccc(-c2c(C(F)(F)F)nn(C)c2NC(=O)NC(C)(C)C)cc1 | 91 | 91 | -15 | 101
O=C(NCC1CCCO1)C1CC(=O)N(c2ccccc2)C1 (configuration not stated) | 74 | 110 | -4 | 104
CCCSc1nnc2n(-c3cc(C)cc(C)c3)c(=O)c3ccccc3n12 | 103 | 93 | -8 | .
Cc1ccc(-n2c(C)cc(C(=O)CN3CC(C)OC(C)C3)c2C)cc1 (configuration not stated) | 105 | 94 | 8 | .
CC(C)(C)OC(=O)N1CCC(C(=O)Nc2nnc(-c3ccc(Cl)cc3)o2)CC1 | 14 | 12 | -18 | .
Fc1ccc(-c2nn(-c3ccccc3)cc2C=NCc2ccccc2)cc1 | 95 | 100 | . | 107
Cc1ccc(N2C(=O)Nc3ccccc3C2(O)C(=O)N2CC(C)CC(C)C2)cc1C (configuration not stated) | 105 | 102 | 3 | 109
CCN1CCSc2ccc(C(=O)NCc3ccc(OC(C)C)cc3)cc21 | 99 | 88 | -1 | 102
Cc1ccc(NC(=O)CCc2nnc3ccc(N4CCC5(CC4)OCCO5)nn23)cc1 | 109 | 96 | . | 100
CCc1ccccc1NC(=O)CSc1nncn2c1cc1oc(C)cc12 | 71 | 74 | . | 108
Cc1ccc2oc(=O)c3cc(C(=O)NC(C)C)sc3c2c1 | 93 | 95 | . | 116
O=C(Nc1ccccc1)C(F)C(F)(F)F (configuration not stated) | 107 | 100 | -3 | 100
COc1ccc(CNC(=O)Cn2c(=O)oc3cc(S(=O)(=O)N4CCCCCC4)ccc32)cc1 | 134 | 96 | . | 99
Cc1cc(OCC(=O)NCCc2nc3ccccc3[nH]2)cc(C)c1Cl | 106 | 87 | -28 | 100
CN(C1CCCCC1)S(=O)(=O)c1ccc(-c2ccc(=O)[nH]n2)o1 | 94 | 77 | -88 | 101
Cn1cc(C(=O)NC2CCCCC2)c2[nH]c(=O)n(-c3ccc(Cl)cc3)c(=O)c21 | . | . | -18 | 100
CCC(c1nc2ccccc2n1C)C(O)c1ccccc1 (configuration not stated) | 93 | 75 | -6 | .
Cc1ccc2c(=O)cc(C(=O)Nc3sc4c(c3C(N)=O)CCCC4)oc2c1 | 107 | 91 | -23 | 101
Cc1ccc(Cc2nnc(C(=O)NCCC3=CCCCC3)o2)cc1 | 96 | 83 | . | 102
CCCc1nnc2sc(COc3cc(C)ccc3C(C)C)nn12 | . | . | -17 | 112
CC1CCCCN1C(=S)NCCc1ccccc1 (configuration not stated) | 94 | 79 | -7 | .
CCCNC(=O)c1c(NC(=O)c2ccccc2)sc2c1CCC(C(C)(C)C)C2 (configuration not stated) | 99 | 95 | -16 | 101
CC1(C)OC(=O)C(=Cc2c[nH]c3ccccc23)C(=O)O1 | 95 | 93 | -45 | 101
CS(=O)(=O)Nc1cccc(C2=NN(C(=O)CCC(=O)O)C(c3cccs3)C2)c1 (configuration not stated) | 104 | 94 | . | 94
CCC(=O)NC(C)c1nc(-c2ccc(Cl)cc2)no1 (configuration not stated) | . | . | 3 | 96
COC(=O)c1ccccc1NC(=S)N(Cc1ccco1)Cc1cc2cc(C)ccc2[nH]c1=O | 83 | 99 | 20 | 102
COc1ccccc1OC(=O)c1ccc2c(c1)OCCO2 | 102 | 84 | -18 | .
CCOc1ccc(CC(=O)NCCc2csc3nc(-c4ccccc4F)nn23)cc1 | 88 | 92 | . | 109
CCCCN(CC)CCCNC(=O)C1CCN(c2nc3cccnc3s2)CC1 | . | . | -2 | 107
CCOC(=O)c1ccc(NC2(c3ccccc3)C(=O)c3ccccc3C2=O)cc1 | 109 | 95 | . | 97
NC(=O)CSc1nc(-c2ccccc2)nc2c1Cc1ccccc1O2 | 101 | 90 | -4 | 102
COc1ccc(CNc2ncnc3c2c(-c2ccccc2)cn3-c2ccccc2)cc1 | 104 | 89 | . | 108
CN=C(Nc1ccc(C)cc1C)SC | 98 | 101 | 13 | 106
CC(C)CC(c1ccccc1)C(O)c1ccccc1 (configuration not stated) | 100 | 74 | -42 | 99
O=C(NNc1ncnc2c1cnn2-c1ccc(Cl)cc1)c1cccs1 | 118 | 95 | -31 | 97
CCc1ccc(-c2ccc(=O)[nH]n2)cc1S(=O)(=O)N1CCOCC1 | . | . | -64 | 103
O=c1[nH]c2ccccc2c(=O)n1CCNc1cccc(Cl)c1 | 96 | 80 | -30 | 105
O=C1CCC(C(=O)OCC(=O)c2ccccc2)N1 (configuration not stated) | 102 | 97 | 5 | .
